# Screening results deposited in PubChem by National Center for Advancing Translational Sciences (NCATS).
# G9a inh: qHTS Assay for Inhibitors of Histone Lysine Methyltransferase G9a; AID 504332, 2011; G9a H3K9 monomethylation, AlphaScreen, 2 h; hit rate 8.8% among 350,000; Potency, µM (highest dose often 102 µM), for inactives: at the top dose activity, negative = inhibition, most hits filed as inhibitors; further: potency means the concentration at half of the fitted maximal effect; on the % scale 0 is the no-effect control and ±100 the full control effect; nearly all actives have a fitted effect of over 75% in size
#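 Methyltransferase reactions run at room temperature for 2 h (20 nM enzyme, 500 nM biotin-H3K9 peptide, 20 uM SAM) after a 15 min compound preincubation; product detected by AlphaScreen beads and anti-H3K9me1 antibody.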
# GLS inh: qHTS for Inhibitors of Glutaminase (GLS); Glutaminase kidney isoform, mitochondrial (Homo sapiens), O94925; GLS enzymatic activity, qHTS titration; Potency, µM (top dose mostly 45.5 µM), without a hit: top-dose activity change, negative = inhibition, hits mostly inhibitors; hit rate 0.21% among 410,000; further: potency means the concentration at half of the fitted maximal effect; on the % scale 0 is the no-effect control and ±100 the full control effect
#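 Compounds were pin-transferred onto hKGA, after which L-glutamine (1 mM solution) and a detection mix of glutamate oxidase, HRP and Amplex Red were added. Initial and 30 min RT fluorescence reads were collected.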
# ERG-DNA inh: qHTS for Small Molecule Inhibitors of the ERG Ets/DNA interaction | fluorescence polarization, His-ERG Ets domain / labelled DNA | Potency, µM (doses to about 76.9 µM), for inactives: top-dose FP activity, negative = inhibition, actives largely listed as inhibitors | hit rate 0.028% among 370,000; active means well fitted inhibition curve with a large enough effect in the polarisation, with a control signal flat; inconclusive means small, poorly fitted or top-dose-only effect, or effect the other way, or a change in a side signal; inactive means no such curve, though single readings can be large or run the other way; the % refers to the polarisation;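 further: polarization taken with two DNA probes labelled with fluorescein and Texas red; potency means the concentration at half of the fitted maximal effect; % of control where 0% means no effect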
#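 His-tagged ERG Ets domain (1 uM in the protein solution; 300mM KCl, 50mM Tris-HCl, 1mM EDTA, 1mM DTT, pH 7.5) received compound, then a probe mix of 5 nM fluorescein-DNA and 100nM Texas-615-DNA. Fluorescence polarization was read for both dyes.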
# RGS4 inhibitor: Inhibitors of Regulator of G Protein Signaling (RGS) 4: qHTS | Regulator of G-protein signaling 4 (Homo sapiens), P49798 | Transcreener GDP fluorescence polarization, RGS4-accelerated GTP hydrolysis | Potency, µM (titrated, usually from 114 µM), without a hit: at the top dose activity change, negative = inhibition, most hits filed as inhibitors | hit rate 0.039% among 390,000; further: potency means the concentration at half of the fitted maximal effect; on the % scale 0 is the no-effect control and ±100 the full control effect; nearly all actives have a fitted effect of over 75% in size; some results filed as inactive show a strong effect at the top dose
#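 MLSMR compounds (23 nl, pin-transferred) preincubated 10 min at room temperature with a 500nM (2x) first reagent, then RGS4 at 900nM (2x) plus Transcreener GDP mix added; fluorescence polarization (620/688 nm) read before and after 90 min at 30 °C.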
# 12-LOX inh: Primary qHTS assay for inhibitors of human arachidonate 12S-lipoxygenase (ALOX12): Round 2 | purified 12hLO, xylenol orange hydroperoxide absorbance | Potency, µM (highest dose often 108 µM), for inactives: at the top dose activity change, negative = inhibition, actives largely listed as inhibitors | hit rate 1.1% among 580,000 | AID 1671190, 2021; further: potency means the concentration at half of the fitted maximal effect; on the % scale 0 is the no-effect control and ±100 the full control effect
# Target sequence (P18054 whole entry, looked up): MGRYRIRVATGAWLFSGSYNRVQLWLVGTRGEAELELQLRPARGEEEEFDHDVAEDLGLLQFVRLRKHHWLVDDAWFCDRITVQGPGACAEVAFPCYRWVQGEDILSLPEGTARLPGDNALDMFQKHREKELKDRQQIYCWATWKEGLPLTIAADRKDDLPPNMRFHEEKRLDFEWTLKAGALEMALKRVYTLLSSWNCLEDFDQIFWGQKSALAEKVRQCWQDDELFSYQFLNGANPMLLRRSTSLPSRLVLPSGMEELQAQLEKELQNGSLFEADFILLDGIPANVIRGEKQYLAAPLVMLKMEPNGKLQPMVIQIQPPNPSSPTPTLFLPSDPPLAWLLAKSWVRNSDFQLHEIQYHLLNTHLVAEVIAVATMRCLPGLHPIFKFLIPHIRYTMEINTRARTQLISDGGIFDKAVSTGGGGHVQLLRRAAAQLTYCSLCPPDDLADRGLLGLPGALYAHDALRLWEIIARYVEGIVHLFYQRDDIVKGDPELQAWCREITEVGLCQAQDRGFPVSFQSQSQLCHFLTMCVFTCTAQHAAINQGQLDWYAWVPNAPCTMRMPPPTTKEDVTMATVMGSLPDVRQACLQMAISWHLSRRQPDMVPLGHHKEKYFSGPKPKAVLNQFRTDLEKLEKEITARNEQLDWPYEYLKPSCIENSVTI
#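 Hydroperoxide product was detected by ferrous iron/xylenol orange as the 573 to 405 nm absorbance ratio. Arachidonic acid at 40 uM (final) was turned over for 30 min at room temperature by 150 nM human 12hLO, pH 7.0 Hepes buffer, after 15 min compound preincubation.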
# JMJD2A Tudor: qHTS Assay for Inhibitors of JMJD2A-Tudor Domain | Lysine-specific demethylase 4A (Homo sapiens), O75164 | Potency, µM (titrated, usually from 114 µM), for the others: at the highest dose activity change, negative = inhibition, hits mostly inhibitors | hit rate 4.4% among 390,000 | AlphaScreen JMJD2A-Tudor / H3K4me3 peptide binding; further: potency means the concentration at half of the fitted maximal effect; on the % scale 0 is the no-effect control and ±100 the full control effect; nearly all actives have a fitted effect of over 50% in size
# HP1b binding inh: HTS for Inhibitors of HP1-beta Chromodomain Interactions with Methylated Histone Tails | Chromobox protein homolog 1 (Homo sapiens), P83916 | AlphaScreen HP1-beta / biotin-H3K9me3 peptide binding | Potency, µM (series often up to 114 µM), for the others: at the top dose activity change, negative = inhibition, actives largely listed as inhibitors | hit rate 0.56% among 390,000 | AID 540317, 2011; further: potency means the concentration at half of the fitted maximal effect; nearly all actives have a fitted effect of over 70% in size; inactives centre near 23
# Target sequence (P83916 whole entry, looked up): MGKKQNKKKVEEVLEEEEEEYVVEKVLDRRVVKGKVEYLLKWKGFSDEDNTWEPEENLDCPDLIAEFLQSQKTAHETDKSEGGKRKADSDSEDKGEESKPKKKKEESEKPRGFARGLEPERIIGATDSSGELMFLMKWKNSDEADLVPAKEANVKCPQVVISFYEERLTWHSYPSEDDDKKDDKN
#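 Compound inhibition of the preformed complex between 50 nM HP1-beta and 50 nM biotinylated H3K9me3 peptide was read by AlphaScreen. Buffer was PBS pH 7.4 with 0.01% Tween-20. Incubations ran 30 min at room temperature, with 10 ug/mL donor/acceptor beads.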
# PI4K2A inh: qHTS for small molecular inhibitors of PI4K2A; Phosphatidylinositol 4-kinase type 2-alpha (Homo sapiens), Q9BTU6; purified PI4K2A, ADP-Glo luminescence, 1 h; active compounds read low; activity change, negative = inhibition, % at 76.9 µM; hit rate 0.13% among 420,000; AID 1346378, 2018; in the data active means activity change below about -50%; inconclusive means mostly about -30% to -49%;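 further: -100% = wells without enzyme as full effect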
#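 Compounds are screened against recombinant PI4K2A using PI as substrate and ATP, the latter dispensed at 300 microM. Reactions run one hour at ambient temperature before ADP-Glo detection; full inhibition defined by wells lacking enzyme.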
# * = called active by the depositor; ? = inconclusive; · = not tested or not shown; [ ] = another dose, or the depositor's remark. Unless noted, the call rests on the fitted dose curve; in most records, active means well fitted curve in the direction sought with a large enough effect; inconclusive means small, poorly fitted or top-dose-only effect, or another doubt; inactive means no such curve, though single readings can be large; an effect the other way counts as inactive or inconclusive.
SMILES,G9a inh,GLS inh,ERG-DNA inh,RGS4 inhibitor,12-LOX inh,JMJD2A Tudor,HP1b binding inh,PI4K2A inh
Cc1ccc(S(=O)(=O)c2nc(-c3cccs3)oc2N2CCCCC2)cc1,?,-3%,0%,-30%,?,?,-24%,-2
O=C(CSc1nnc(-c2ccccn2)o1)Nc1ccccc1,·,0%,-2%,-15%,22%,-22%,6%,1
COc1ccc(/C(N)=N/OC(=O)c2cccs2)cc1,·,-1%,9%,16%,100%[activator],21%,67%[activator],-10
C=CCOc1ccc(Br)cc1/C=N/O,2%,3%,-7%,-23%,4%,-2%,32%,-1
COc1cccc(NCc2cc3c(C(C)(C)C)nn(-c4ccccc4)c3[nH]c2=O)c1,25µM*,22%,·,10%,3%,?,-24%,-1
CCc1nnc(NC(=O)c2cccc(S(=O)(=O)N(C)c3ccccc3)c2)s1,?,6%,4%,0%[56.9 µM],-9%,-21%[57.1 µM],53%[activator],1
O=C(Cc1ccc(-c2ccccc2)cc1)Nc1ncccc1O,-5%,3%,2%,26%,0%,?,28%,-9
CCCCCCn1c(N2CCN(c3ccccc3)CC2)nc2c1c(=O)n(C)c(=O)n2C,?,16%,7%,1%,-29%,?,-8%,-4
COc1ccccc1-c1nnc(NC(=O)C2=COCCO2)o1,?,6%,-3%,9%,25%,?,27%,-4
CC(=O)Nc1cccc(NC(=O)c2sc3ncn(CC(=O)N4CCCCC4)c(=O)c3c2C)c1,5%[59 µM],2%,-11%,20%[11.4 µM],37%[activator],7%[57.1 µM],8%,3
COc1ccc(/C(C)=N/Nc2nc3ccccc3nc2C)cc1,35µM*,13%,16%,8%,0%,?,?,0
CC1CCN(C(=S)c2ccc(N(C)C)cc2)CC1,·,29%,4%,-7%,?,?,?,5
COC(=O)c1cc2oc(C)cc2n1Cc1ccccc1Cl,?,-2%,-2%,-6%,-6%,1%,24%,3
COc1ccc(CNC(=O)CN2CCSc3ccccc32)c(OC)c1,3%[59 µM],1%,-1%,2%,-17%,?,3%[57 µM],-6
O=C(Cn1c(=O)n(Cc2ccccc2)c(=O)c2ccccc21)NCc1ccco1,12%,1%,3%,-13%,0%,-15%,16%,-3

# At a glance, part of the list above.
SMILES,G9a inh,GLS inh,ERG-DNA inh,RGS4 inhibitor,12-LOX inh,JMJD2A Tudor,HP1b binding inh,PI4K2A inh
Cc1ccc(S(=O)(=O)c2nc(-c3cccs3)oc2N2CCCCC2)cc1,?,-3%,0%,-30%,?,?,-24%,-2
O=C(CSc1nnc(-c2ccccn2)o1)Nc1ccccc1,·,0%,-2%,-15%,22%,-22%,6%,1
COc1ccc(/C(N)=N/OC(=O)c2cccs2)cc1,·,-1%,9%,16%,100%[activator],21%,67%[activator],-10

# (cont.)
SMILES,G9a inh,GLS inh,ERG-DNA inh,RGS4 inhibitor,12-LOX inh,JMJD2A Tudor,HP1b binding inh,PI4K2A inh
CO/N=C/c1ccc(Sc2ccccc2)c([N+](=O)[O-])c1,?,9%,7%,18%,10%,?,?,8
COC(=O)c1nc2n(n1)C(c1cc(OC)ccc1OC)C=C(c1ccc(Br)cc1)N2 (stereo not drawn),?,13%,-7%,-9%,?,?,2%,1
Nn1c(SCC(=O)NC(=O)NCc2ccco2)nnc1-c1ccc(OC(F)F)cc1,-50%[12.7 µM],?,-20%,5%[11.4 µM],134%[activator],-14%[11.4 µM],-4%,-13
COc1ccc(-n2ncc3c(NC(C)C)ncnc32)cc1,-3%,3%,4%,-6%,?,-14%,12%,3
CCCCN(CCCC)C(=O)c1c[nH]c2ccc(S(=O)(=O)Nc3cccc(Cl)c3C)cc2c1=O,-4%[12.7 µM],-14%,-1%,-29%,4%,?,-5%,-5
Cn1c(-c2ccc3c(c2)OCO3)cnc1NCc1cccc(O)c1,22µM*,-28%,0%,-1%,11µM*,?,?,0
O=S(=O)(Nc1ccc(-c2cn3ccsc3n2)cc1)c1ccc2c(c1)OCCO2,?,15%,4%,-6%,?,?,-18%,6
CCOc1ccc(CN2CCN(CC(O)Cn3c4ccccc4c4ccccc43)CC2)cc1 (stereo not drawn),45µM*,6%,-2%,4%,5%,-20%,5%,4
N#C/C(=C\c1ccc(-c2ccccc2)cc1)c1nc(-c2ccco2)cs1,-10%[59 µM],-12%,-17%,-31%,-23%,-5%,29%,4
O=C(N/N=C/c1ccc[nH]1)c1cc(-c2ccc(Cl)cc2)nc2ccccc12,?,-19%,0%,5%,-2%,?,?,5
COc1ccc(OCCSc2nnc3sc4ccccc4n23)cc1,?,-3%,·,-28%,?,-10%,22%,0
Cc1noc(C)c1S(=O)(=O)N(CCc1ccccc1)Cc1ccccc1,24%[59 µM],-8%,3%,-11%,-2%,70%[activator],119%,7
Cc1ccccc1CN1C(=O)C(O)(c2c[nH]c3ccccc23)c2cc(Cl)ccc21 (stereo not drawn),-38%[59 µM],6%,2%,-3%,-28%,?,-4%,1
CCOC(=O)c1[nH]cnc1C(=O)Nc1cccc(N)n1,?,-1%,-21%,-7%,-13%,?,21%,8
Cc1ccc2c(c1)/C(=C/c1ccco1)C(=O)N2,25µM*,4%,-2%,-18%,?,?,-16%,-9

# Compound profiles (already shown).
# O=S(=O)(Nc1ccc(-c2cn3ccsc3n2)cc1)c1ccc2c(c1)OCCO2 is listed as G9a inh: ?; GLS inh: 15%; ERG-DNA inh: 4%; RGS4 inhibitor: -6%; 12-LOX inh: ?; JMJD2A Tudor: ?; HP1b binding inh: -18%; PI4K2A inh: 6
# COc1ccc(OCCSc2nnc3sc4ccccc4n23)cc1 is listed as G9a inh: ?; GLS inh: -3%; ERG-DNA inh: ·; RGS4 inhibitor: -28%; 12-LOX inh: ?; JMJD2A Tudor: -10%; HP1b binding inh: 22%; PI4K2A inh: 0
# N#C/C(=C\c1ccc(-c2ccccc2)cc1)c1nc(-c2ccco2)cs1 is listed as G9a inh: -10%[59 µM]; GLS inh: -12%; ERG-DNA inh: -17%; RGS4 inhibitor: -31%; 12-LOX inh: -23%; JMJD2A Tudor: -5%; HP1b binding inh: 29%; PI4K2A inh: 4

# Some entries already given, limited to JMJD2A Tudor:
SMILES	JMJD2A Tudor
CCCCN(CCCC)C(=O)c1c[nH]c2ccc(S(=O)(=O)Nc3cccc(Cl)c3C)cc2c1=O	?
Cn1c(-c2ccc3c(c2)OCO3)cnc1NCc1cccc(O)c1	?

# More records follow.
SMILES,G9a inh,GLS inh,ERG-DNA inh,RGS4 inhibitor,12-LOX inh,JMJD2A Tudor,HP1b binding inh,PI4K2A inh
COc1ccc(C(=O)Nc2cc3c(cc2N2CCCCC2)n(C)c(=O)n3C)cc1OC,?,7%,2%,-24%,6%,-30%,3%,6
Nc1nonc1-n1nnc(C(=O)N/N=C/c2ccccc2F)c1CN1CCc2ccccc21,·,26%,-7%,0%,-1%,?,-4%[57 µM],-6
COCCCn1c(C)nnc1SCC(=O)NCc1ccco1,-6%[59 µM],-2%,·,-12%,-5%,-8%,28%,0
Cc1cccc(-n2c(-c3ccccc3)c[nH]c2=S)c1C,?,?,?,?,?,?,-10%,3
CC(=O)c1cc(-c2ccc(F)cc2)n(CCC(=O)Nc2cc(C)[nH]n2)c1C,-9%[59 µM],-3%,-3%,-4%[11.4 µM],0%,12%[11.4 µM],-10%,-4
COc1cc(OC)c(NC(=O)CN2C(=O)CCn3nc(-c4cccn4C)cc32)cc1Cl,?,-2%,0%,-22%,-29%,?,-15%[57 µM],-1
CCOC(=O)c1c(NC(=O)/C=C/c2ccc(Cl)cc2)sc2c1CCC(C)C2 (stereo not drawn),-2%[59 µM],6%,-4%,-8%,-5%,-4%,25%,-2
CCOc1ccccc1C(=O)OCC(=O)Nc1nnc(-c2ccccc2)o1,-25%,1%,-18%,-9%,14%,?,33%,-1
CCC(CC)NC(=O)COC(=O)c1ccc(NS(=O)(=O)c2ccc3c(c2)OCCO3)cc1,?,-3%,0%,-33%,0%,-9%,22%,5
O=C(Oc1ccccc1)c1cccc2cccnc12,?,-10%,·,-8%,-12%,?,-18%,1
Cc1ccc(C)c(-c2cc(C(=O)Nc3nccs3)c3ccccc3n2)c1,5%[0.0925 µM],3%,-8%,-3%,-22%,-32%,-9%,3
CCCCCCCCCS(=O)(=O)N/N=C/c1cccc([N+](=O)[O-])c1,?,2%,0%,-11%,?,?,-22%,-1
COc1ccc(NS(=O)(=O)c2ccc(N3CCCC3)c(N)c2)cc1,14µM*,-15%,1%,-2%,-5%,?,?,-1
CC(C)OC(=O)CCCN1C(=O)c2ccc(N)cc2C1=O,-6%,-3%,2%,1%[11.4 µM],2%,-3%[11.4 µM],63%[activator],7

# Some of the compounds tested; count on the stated rates, not on these rows.
